CSC inhib: blocks cancer stem cells | cancer stem cell-like cells viability, luminescence | inhibition, % at 7.5 µM | hit rate 1.1% among 300,000 | AID 2717;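 active = mean at 75% or more and at least half the replicates too; inconclusive = mean and replicates disagree; tested in HMLE shEcad cells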;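 also: 0% = median of negative and 100% = median of positive control wells; the first replicate is given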
Yeast UUG start: modulators of start codon recognition fidelity in yeast | S. cerevisiae UUG-firefly luciferase reporter, luminescence/redox ratio | activity score, % at 18.7 µM | hit rate 0.13% among 350,000 | AID 602363;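 active = replicate mean at a twofold rise or more, about +100% in these data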;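 also: firefly luciferase made from a UUG start codon reports start codon fidelity; reporter light over untreated wells divided by growth signal over untreated wells; some hits fall short of that in this replicate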
eIF4H FP inh: inhibitors of RNA binding by human eIF4H; Q15056; eIF4H fluorescence polarization binding assay; hit rate 0.94% among 290,000; inhibition, % at 35 µM;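 active = 50% or more with normal probe brightness, or confirmed in later tests; inconclusive = above 50% with abnormal brightness, or retests that disagree; inactive = below 50% or failed in later tests; about a fifth of its hits are not listed in these tables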;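 also: calls also rest on retests at 20 µM and on dose response follow-up; 0% = protein and probe with vehicle and 100% = probe without protein; strong numbers were not always called active; many hits fall short of the cut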
Rce1 inh: yeast Ras-converting enzyme inhibition | Q03530 | yeast membranes, quenched prenylated peptide cleavage fluorescence | calls only | hit rate 0.27% among 290,000;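 active = fall in fluorescence gain of 50% or more versus controls, with final raw signal at or below 3038400; inconclusive = same 50% fall but final raw signal above 3038400; inactive = fall in fluorescence gain under 50%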;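 also: plate controls were neutral control wells for no effect and wells lacking membranes for full effect; tested at 10 µM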
PABP FP inh: blocks human PABP binding to poly(A) RNA | P11940 | fluorescence polarization | inhibition, % at 35 µM | hit rate 1% among 290,000 | AID 2014;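 active = 50% or more with normal probe brightness, or confirmed in later tests; inconclusive = above 50% with abnormal brightness, or retests that disagree; inactive = below 50% or failed in later tests; about a fifth of its hits are not listed in these tables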;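 also: calls also rest on retests at 20 µM and on dose response follow-up; controls were probe without protein and protein plus probe with vehicle; some compounds called inactive have numbers as strong as hits; many hits fall short of the cut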
Target sequence (P11940 whole entry, looked up): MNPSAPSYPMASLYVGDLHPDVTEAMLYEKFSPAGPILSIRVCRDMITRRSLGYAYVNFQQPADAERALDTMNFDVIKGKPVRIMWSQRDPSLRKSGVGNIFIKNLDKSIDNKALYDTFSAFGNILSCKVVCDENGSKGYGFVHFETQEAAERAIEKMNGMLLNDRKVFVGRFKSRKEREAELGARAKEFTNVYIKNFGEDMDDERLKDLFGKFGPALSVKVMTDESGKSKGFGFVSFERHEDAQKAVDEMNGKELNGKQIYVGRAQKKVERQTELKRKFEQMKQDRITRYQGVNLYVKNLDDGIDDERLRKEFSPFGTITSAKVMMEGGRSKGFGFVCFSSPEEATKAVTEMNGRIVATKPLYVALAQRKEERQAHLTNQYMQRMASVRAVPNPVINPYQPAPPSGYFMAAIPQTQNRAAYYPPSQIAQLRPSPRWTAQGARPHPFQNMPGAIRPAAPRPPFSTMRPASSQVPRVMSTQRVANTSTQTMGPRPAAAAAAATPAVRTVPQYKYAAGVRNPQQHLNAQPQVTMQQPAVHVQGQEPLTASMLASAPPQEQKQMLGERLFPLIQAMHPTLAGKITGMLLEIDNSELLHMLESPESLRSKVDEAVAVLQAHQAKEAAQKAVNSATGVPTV
HIV Env fusion: blocks HIV Env-driven cell-cell fusion | inhibition, % at 12.3 µM | HeLa-JRFL Env/CEM21 cell fusion, luciferase | hit rate 1.1% among 360,000;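 active = mean replicate inhibition score of at least 50 and every replicate individually at or above 50; inconclusive = only one of the two criteria met; inactive = mean below 50 and not all replicates reaching 50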;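 also: 0% = plate neutral controls and 100% = maraviroc near 300 nM; one replicate is shown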
MT1-MMP act inh: MT1-MMP (human) activation inhibition; P50281; HT1080 RFP-PRO-GFP cells, GFP/RFP ratio fluorescence, overnight; percent of plate control window, DMSO zero; hit rate 0.061% among 360,000; GFP/RFP ratio change, % at 20 µM;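 active = GFP/RFP ratio change of at least 30% with cell ATP level not reduced by more than half and red fluorescence within 50% of control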; also: strong numbers were not always called active
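Assay system: HT1080 cells carrying an RFP-PRO-GFP reporter | Dosing: Single dose of 20 µM compound, 1% DMSO final | Incubation: Cells overnight before dosing, compound overnight, 37 °C, 5% CO2 | Evaluation: GFP/RFP fluorescence ratio | Control set: DMSO and RFP-L50D-GFP cell wells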
MT1-MMP act inh RFP: further read-out of MT1-MMP act inh, marked with its call; RFP signal change, %; measured here: RFP expression control read;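 0 = vehicle wells; hits needed this value within 50% of zero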
Active calls of the source: *; i = inactive; ? = inconclusive; / = not tested or not shown. Hits appear at their usual frequency (roughly 3% active in at least one column).

SMILES	CSC inhib	Yeast UUG start	eIF4H FP inh	Rce1 inh	PABP FP inh	HIV Env fusion	MT1-MMP act inh	MT1-MMP act inh RFP
O=C(N/N=C/c1ccsc1)c1cc(-c2cccs2)nc2ccccc12	54	1	-8	i	4	/	-4	-7
Cc1[nH]c2ccccc2c1/C=N\NC(=O)c1ccco1	7	-10	-1	i	0	-31	3	2
O=C(O)C1CCN(C(=O)COc2ccc(Br)cc2)CC1	-8	-7	2	i	-5	1	-2	1
COc1ccc(OC)c(NC(=O)C2CCN(c3ncccn3)CC2)c1	/	0	4	i	15	8	3	7
Cc1nn(-c2ccc(F)cc2)c(Cl)c1/C=N/NC(=O)c1cccc(S(=O)(=O)N2CCCC2)c1	1	0	1	i	-6	27	-1	-7
CC1CN(S(=O)(=O)c2ccc(C(=O)NC3CCCCC3)cc2)CC(C)O1 (stereo not drawn)	-12	-11	/	/	/	25	6	-9
O=C(Nc1ccccc1F)c1ccc([N+](=O)[O-])s1	5	/	-5	i	6	-14	2	-9
CCOc1ccc(NC2=C(OC)C(=O)c3ccccc3C2=O)cc1	24	/	9	i	-2	-25	13	0
O=P(c1ccccc1)(c1ccccc1)C(c1ccccn1)P(=O)(c1ccccc1)c1ccccc1	-1	-7	-5	i	3	66*	4	5
Cc1cccc(NCc2ccc(N(C)C)cc2)n1	2	-16	12	i	-5	-38	1	3
Nc1ncnc2c1ncn2[C@@H]1O[C@H](CN2CCCS2(=O)=O)[C@@H](O)[C@H]1O	/	-14	/	/	/	?	2	2
Cn1cccc1C(=O)OCC(=O)NC1CCS(=O)(=O)C1 (stereo not drawn)	-9	/	-10	i	21	15	1	6
Cc1cc(-c2ccccc2C(=O)NC2CCCCC2)on1	-15	/	-1	i	7	-4	/	/
COC(=O)c1ccccc1N=Nc1c(N)[nH][nH]c1=O	-8	/	0	i	-4	14	2	-2
CC1CCN(S(=O)(=O)c2ccc(C(=O)OCc3ccc4c(c3)OCO4)cc2)CC1	15	-1	6	i	-6	-8	-14	0
COc1ccc(CC(=O)N(Cc2ccccc2)c2ccc(C)cc2)cc1S(=O)(=O)N1CCOCC1	-15	4	/	i	/	-6	-3	-5
CCC(=O)Nc1cccc(NC(=O)c2ccc(Br)cc2)c1	/	/	3	i	-14	-16	4	0
CCC(CC)C(=O)c1c[nH]c(C(=O)NCc2ccccc2OC)c1	-13	11	6	i	4	-17	-12	-14
CCN1CCN(c2ncnc3c2sc2nc(N4CCOCC4)c4c(c23)CCC4)CC1	/	-2	-6	/	-9	/	-1	3
COc1ccc(CSCC(=O)Nc2ccc(S(=O)(=O)N3CCCCCC3)cc2)cc1	6	/	-6	i	2	-238	-12	-11

Given in markdown: 12 of the compounds above
| Structure | CSC inhib | Yeast UUG start | eIF4H FP inh | Rce1 inh | PABP FP inh | HIV Env fusion | MT1-MMP act inh | MT1-MMP act inh RFP |
| --- | --- | --- | --- | --- | --- | --- | --- | --- |
| CCOc1ccc(NC2=C(OC)C(=O)c3ccccc3C2=O)cc1 | 24 | / | 9 | i | -2 | -25 | 13 | 0 |
| O=P(c1ccccc1)(c1ccccc1)C(c1ccccn1)P(=O)(c1ccccc1)c1ccccc1 | -1 | -7 | -5 | i | 3 | 66* | 4 | 5 |
| Cc1cccc(NCc2ccc(N(C)C)cc2)n1 | 2 | -16 | 12 | i | -5 | -38 | 1 | 3 |
| Nc1ncnc2c1ncn2[C@@H]1O[C@H](CN2CCCS2(=O)=O)[C@@H](O)[C@H]1O | / | -14 | / | / | / | ? | 2 | 2 |
| Cn1cccc1C(=O)OCC(=O)NC1CCS(=O)(=O)C1 (stereo not drawn) | -9 | / | -10 | i | 21 | 15 | 1 | 6 |
| Cc1cc(-c2ccccc2C(=O)NC2CCCCC2)on1 | -15 | / | -1 | i | 7 | -4 | / | / |
| COC(=O)c1ccccc1N=Nc1c(N)[nH][nH]c1=O | -8 | / | 0 | i | -4 | 14 | 2 | -2 |
| CC1CCN(S(=O)(=O)c2ccc(C(=O)OCc3ccc4c(c3)OCO4)cc2)CC1 | 15 | -1 | 6 | i | -6 | -8 | -14 | 0 |
| COc1ccc(CC(=O)N(Cc2ccccc2)c2ccc(C)cc2)cc1S(=O)(=O)N1CCOCC1 | -15 | 4 | / | i | / | -6 | -3 | -5 |
| CCC(=O)Nc1cccc(NC(=O)c2ccc(Br)cc2)c1 | / | / | 3 | i | -14 | -16 | 4 | 0 |
| CCC(CC)C(=O)c1c[nH]c(C(=O)NCc2ccccc2OC)c1 | -13 | 11 | 6 | i | 4 | -17 | -12 | -14 |
| CCN1CCN(c2ncnc3c2sc2nc(N4CCOCC4)c4c(c23)CCC4)CC1 | / | -2 | -6 | / | -9 | / | -1 | 3 |

Remaining list, next part
SMILES	CSC inhib	Yeast UUG start	eIF4H FP inh	Rce1 inh	PABP FP inh	HIV Env fusion	MT1-MMP act inh	MT1-MMP act inh RFP
CC(C)c1c(O)nc(SCC(=O)N2CCCCC2)[nH]c1=O	6	-9	1	i	-2	1	3	5
COc1ccc(CNC(=O)c2ccc3c(=O)n(-c4ccccc4)c(=O)[nH]c3c2)cc1	-9	-4	8	i	-6	/	3	-2
O=C(NCCC1=CCCCC1)C1CCCN(S(=O)(=O)c2ccc(F)cc2)C1 (stereo not drawn)	8	-18	-3	i	0	/	-1	-3
O=C(NCc1ccc(F)cc1)C(=O)Nc1nc(C23CC4CC(CC(C4)C2)C3)cs1	75*	/	-7	i	1	/	-12	-16
O=c1[nH][nH]c2ccccc2c1=O	-13	-11	25	i	25	15	-1	3
C(=N\N(Cc1ccccc1)c1ccccc1)/c1cccnc1	10	/	-5	i	-7	1	-3	-5
CCOc1ccc(N(CC(=O)NCc2ccco2)C(=O)CCC(=O)Nc2ccccn2)cc1	/	-14	-4	i	12	-2	-4	-1
O=C(N/N=C/c1ccc2c(c1)OCO2)c1cccc2ccccc12	/	-14	-14	i	-1	18	-7	-11
Cc1ccc(NC(=O)CSc2ccc3nnc(-c4ccccn4)n3n2)cc1	0	-22	-13	i	9	-39	-1	3
Cc1nc2ccccc2n1C1CCN(CC(=O)Nc2ccccc2Br)CC1	-11	/	-6	i	-9	14	-2	-13
COc1ccc(C(=O)Nc2ncc3c(n2)-c2ccccc2CC3)cc1	7	-8	-15	i	0	-29	1	-1
CCOC(=O)C(=O)N1CCC(C(=O)OCC)CC1	5	-9	-14	i	-6	14	0	-3
CCS(=O)(=O)N1CCC(C(=O)Oc2ccc(C(=O)OC)cc2)CC1	-18	-15	-11	/	1	5	-2	-3
Cc1ccc(/C=N/n2c(C)cc(C)c(C#N)c2=O)cc1	5	-3	-4	i	3	-13	2	-1
CC(C)NC(=O)c1ccc(CS(=O)(=O)c2ccc(Br)cc2)o1	-14	-9	-5	i	0	-5	3	1
O=C1CC(c2cccc(Cl)c2)c2cc3c(cc2N1)CCC3 (stereo not drawn)	/	0	-1	i	-4	/	-13	-19
Cc1ccc(C)c(NC(=O)CCN2CCCC(C)C2)c1 (stereo not drawn)	-11	-18	11	i	6	-6	0	0
Cc1nc2cc(OCc3cc(C(=O)NC(C)c4cn(C)nc4C)no3)ccc2s1 (stereo not drawn)	-5	-5	-2	i	4	0	1	-6
COCCC(=O)N1CCC(Oc2ccc(C(=O)N(C)CCCC3CCCC3)cc2)CC1	9	3	-7	i	11	-14	4	-10
CC1(C)CC(=O)C/C(=N/NC(=O)COc2ccc(Cl)cc2Cl)C1	-16	/	-4	i	-9	6	1	-1
O=C1CSC(c2cccc([N+](=O)[O-])c2)N1Cc1ccccc1 (stereo not drawn)	-6	-1	1	i	16	1	1	-3
CC(C)Oc1ccc(-c2cc(=O)[nH]c(=O)[nH]2)cc1	-7	/	-10	i	-7	/	1	2
COC(=O)c1cc(-c2ccccc2)sc1N	-8	-10	-7	i	-2	-264	16	4
CC(=Nc1ccccc1)C1=C(O)CC(C)(C)CC1=O	8	-9	-3	i	-2	-54	0	1
COc1ccc(CCNC(=O)c2coc3ccccc3c2=O)cc1OC	-1	-7	-6	i	-5	12	-7	0
CCCCCCCCCOC(=O)C1N2C(=O)[C@@H](NC(=O)COc3ccccc3)[C@H]2SC1(C)C (stereo partly drawn)	-10	-22	/	i	/	-6	2	-1
COC1=C(Nc2ccc(OC)cc2)C(=O)C(OC)=C(Nc2ccc(OC)cc2)C1=O	/	-24	/	/	/	-53	5	3
CCOC(=O)Cc1csc(SCC(=O)Nc2cccc(C#N)c2)n1	-2	-26	-12	i	-9	34	6	2
Cc1ccc(C(c2nnnn2CCc2ccccc2)N2CCSCC2)cc1 (stereo not drawn)	-4	7	-6	i	0	/	-1	-10
COc1ccc(Br)cc1/C=N/N1CCN(Cc2ccccc2Cl)CC1	22	-10	4	i	4	7	-2	-2
O=c1ccnc(Sc2ncccc2[N+](=O)[O-])[nH]1	-2	-7	-3	i	-9	/	16	-1
O=C(CCc1nc2ccccc2c(=O)[nH]1)NNC(=O)COc1ccc(Br)cc1	0	/	/	i	/	-9	-8	-2
C=CCn1c(COC)nnc1SCC(=O)c1ccc(F)cc1	-5	-11	4	i	7	-25	4	2
CCOC(=O)Cc1cnc(NC(=O)CSc2nc3ncnc(N)c3[nH]2)s1	-1	/	-9	i	1	-2	3	1
Cc1nn(-c2nnc(NC3CCCCC3)nn2)c(C)c1Br	16	-12	0	i	-4	-53	11	10
Cc1ccc(Oc2ncccc2/C=N/OCc2ccc(Cl)cc2Cl)cc1	6	-8	1	i	2	/	-3	-2
COc1ccc(C(=O)Nc2cnn(Cc3ccc(Cl)cc3)c2)cc1OC	73	5	-1	i	-1	-24	4	0
CCNC(=S)Nc1nc2c(cc1C(=O)OCC)CCCC2	-1	-19	7	i	6	-22	4	-13
O=S(=O)(NCc1csc(-c2cccs2)n1)c1ccccc1	-15	5	-9	i	3	3	6	-1
O=C(CCc1ccccc1)NNC(=O)C1CCCCC1	-10	-11	1	i	0	/	2	4
COc1ccc(C(=O)Oc2ccc3c(C)cc(=O)oc3c2C(C)=O)cc1	-13	-26	-7	i	-11	-19	4	5
N#CCC(=O)Nc1ccc(C(=O)NCc2ccccn2)cc1	-12	/	-1	i	1	1	2	3
COCCN(C(=O)C1CC1)c1nnc(-c2cccc(C)c2)s1	5	-6	-5	i	0	-1	-2	-7
O=C1CN(c2nc(-c3ccccc3)c3ccccc3n2)c2ccccc2N1	/	/	-14	i	2	-14	-7	-4
CCOc1ccc(-c2c(=O)n(OCC)c3ccccc3[n+]2[O-])cc1	-6	-9	2	i	0	-6	0	2
O=C(Nc1cccc(S(=O)(=O)Nc2ccc(Cl)cc2)c1)c1ccc(Cl)nc1	19	/	13	i	12	56*	-6	-26
CCOc1ccc(NC(=O)c2cccnc2C(=O)O)cc1	-8	5	-11	i	0	-81	2	1
CCOc1ccc(NC(=O)C(=O)NCCN2CCN(C(=O)c3ccc(C)cc3)CC2)cc1	-5	/	-5	i	8	8	0	-10
CC(=O)n1nc2nc(C)cc(C)c2c1N	1	/	-8	i	6	/	-3	6
COc1ccccc1OCC(=O)NCc1cccs1	-4	-6	-4	i	-5	-45	-2	4
COc1ccccc1NC(=O)C(=O)NCCCN1CCCC1=O	-3	/	/	i	/	-2	0	-2
CC(C)C(NC(=O)C1CCCCC1)C(=O)NC1=NCCS1 (stereo not drawn)	-11	-12	-6	i	-10	/	9	3
Oc1ccc(/C=N/n2c(-c3ccccc3)n[nH]c2=S)cc1Br	6	-24	5	i	8	-20	-3	-5

Screening results as filed in PubChem.
